# Screens deposited in PubChem BioAssay by National Center for Advancing Translational Sciences (NCATS).
# D2 PAM: positively modulates the human D2 dopamine receptor allosterically; 340,000 compounds, 0.34% hits; AID 485347; HEK293 T-REx D2, calcium flux, EC20 dopamine potentiation; P14416; potentiation, % at 10 µM;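 active = potentiation over 3 SD above the plate norm, cut at about 30% in these data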; note: 0% is about no effect
#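 Calcium flux readout, no-wash dye, 1 read/s. Inducible HEK293 Trex D2 line, overnight 30 C. Compound alone 180 s (agonist flags), then EC20 dopamine, another 180 s to score potentiation.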
# Vif-A3G inh: blocks the Vif interaction with human APOBEC3G. HeLa A3G-eYFP + Vif (tagged APOBEC3G with the HIV-1 protein that degrades it), YFP fluorescence, overnight. Potency, µM (top dose mostly 46.1 µM), for the others: top-dose activity, negative = active, usual class: inhibitors. 410,000 compounds, 0.076% hits;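 note: potency is the fitted concentration of half-maximal effect; % is set by controls: 0 for no effect and ±100 for the full control effect; nearly all actives have a fitted effect of over 60% in size; hits raise eYFP signal because A3G escapes Vif-driven loss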
#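 Read-out is eYFP fluorescence (Ex 488/Em 500-530) from Vif-expressing HeLa A3G-eYFP cells; more signal means A3G escaped Vif-mediated degradation. Cells plated overnight, compound pinned in, incubated overnight at 37 deg C.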
# Vif-A3F inh: Vif-A3F binding inhibition; HeLa A3F-eYFP + Vif (tagged APOBEC3F with the HIV-1 protein that degrades it), YFP fluorescence increase; Potency, µM (series often up to 46.1 µM), without a hit: top-dose activity, negative = active; 390,000 compounds, 0.2% hits; AID 602313; note: potency is the fitted concentration of half-maximal effect; % of control where 0% means no effect; nearly all actives have a fitted effect of over 65% in size
#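 Fluorescence increase (Ex 488/Em 500-530) after overnight compound treatment at 37 deg C flags inhibition of Vif-driven A3F-eYFP loss in stable HeLa A3F-eYFP/Vif cells seeded overnight beforehand.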
# LDHA block: LDHA (human) enzyme inhibition | purified LDHA, NADH/diaphorase-resazurin fluorescence; stronger effect = lower value | activity change, % (values are at about 110 or 230 µM) | 480,000 compounds, 0.15% hits | AID 1347041; in the data active = activity change below about -30%;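 note: plate controls were DMSO wells for no effect and wells without enzyme for full effect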
#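 Human LDH5 (2 nM) was incubated with 0.06 mM NADH and 0.2 mM pyruvate for 5 min at room temperature in Tris pH 7.4. Remaining NADH was coupled through diaphorase/resazurin, and resorufin fluorescence was read at 0 and 20 min.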
# RXFP1 agonist: RXFP1 (human) receptor agonism | Q9HBX9 | HEK293T-RXFP1 cAMP TR-FRET, 30 min; response scale: percent of porcine relaxin response, buffer zero | Potency, µM (top dose mostly 57.5 µM), without a hit: at the top dose activation, most hits filed as activators | 370,000 compounds, 0.3% hits | AID 2676; note: potency is the fitted concentration of half-maximal effect; % is set by controls: 0 for no effect and ±100 for the full control effect; nearly all actives have a fitted effect of over 60% in size; many of its hits are not listed in these tables
# Target sequence (Q9HBX9 whole entry, looked up): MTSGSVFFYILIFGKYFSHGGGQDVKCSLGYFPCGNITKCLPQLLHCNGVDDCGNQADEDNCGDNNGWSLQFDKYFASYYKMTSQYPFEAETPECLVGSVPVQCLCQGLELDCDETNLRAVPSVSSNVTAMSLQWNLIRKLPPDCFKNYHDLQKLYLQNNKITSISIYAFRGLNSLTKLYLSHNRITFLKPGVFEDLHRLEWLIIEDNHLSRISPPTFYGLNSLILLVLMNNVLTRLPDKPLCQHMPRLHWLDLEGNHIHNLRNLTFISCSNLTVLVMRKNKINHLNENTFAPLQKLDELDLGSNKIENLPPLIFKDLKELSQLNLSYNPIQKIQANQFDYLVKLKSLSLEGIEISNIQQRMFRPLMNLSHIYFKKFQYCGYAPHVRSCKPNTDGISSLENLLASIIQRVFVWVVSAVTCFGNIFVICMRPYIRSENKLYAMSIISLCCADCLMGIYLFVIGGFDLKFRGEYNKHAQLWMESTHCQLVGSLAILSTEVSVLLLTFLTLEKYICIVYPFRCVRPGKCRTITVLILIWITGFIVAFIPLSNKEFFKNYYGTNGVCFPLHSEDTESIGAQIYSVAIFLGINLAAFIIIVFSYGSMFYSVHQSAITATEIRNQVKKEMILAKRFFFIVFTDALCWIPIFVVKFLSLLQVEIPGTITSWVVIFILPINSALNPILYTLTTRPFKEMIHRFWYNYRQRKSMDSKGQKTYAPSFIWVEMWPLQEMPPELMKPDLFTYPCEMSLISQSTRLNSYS
#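 HEK293T cells stably expressing RXFP1 were pretreated with the PDE4 inhibitor Ro 20174, exposed to compounds for 30 min at 37C, lysed, and cAMP was read by TR-FRET. Data normalized to buffer (basal) and 29 nM porcine relaxin (100%).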
# GRP78 ERSR act: induces the endoplasmic reticulum stress response in human glioma cells | AID 602332 | U87-MG GRP78 promoter luciferase reporter, 16 h | Potency, µM, for the others: at the highest dose activation, actives largely listed as activators | 420,000 compounds, 0.02% hits; note: potency is the fitted concentration of half-maximal effect; series mostly up to about 76 µM; % of control where 0% means no effect; nearly all actives have a fitted effect of over 35% in size
#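 Stably transfected U87-MG human glioma cells carrying a GRP78-based luminescent sensor were seeded at 1000 cells/well, pin-dosed with compounds and incubated 16 h. Luciferase reagent was then added, and end-point luminescence was read after 10 min at room temperature.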
# Active calls of the source: *; · = not tested or not shown; & = joins results of further samples. Unless noted, calls come from the whole dose curve; as a rule, active = well fitted curve in the direction sought with a large enough effect; inconclusive = small, poorly fitted or top-dose-only effect, or another doubt; inactive = no such curve, though single readings can be large; an effect the other way counts as inactive or inconclusive.
# Below each SMILES: RXFP1 agonist	D2 PAM	GRP78 ERSR act	Vif-A3F inh	LDHA block	Vif-A3G inh
(1) COc1ccc2c(c1OC)C(=O)O[C@H]2C1c2c(cc3c(c2OC)OCO3)CCN1C (some centres undefined)
  ·	·	-2%&-4%	·	·	·
(2) CC(=O)OCC(=O)[C@@]1(O)CCC2C3CCC4=CC(=O)CC[C@]4(C)C3C(=O)C[C@]21C (some centres undefined)
  ·	·	-2%	·	·	·
(3) CCC(C)(C)C(=O)OC1CC(C)C=C2C=CC(C)C(CCC3CC(O)CC(=O)O3)C21 (centres undefined)
  ·	·	-3%	·	·	·
(4) CC(=O)C1CCC2C3CCC4=CC(=O)CC[C@@]4(C)C3CC[C@]12C (some centres undefined)
  ·	·	-3%	·	·	·
(5) CCN[C@@H]1C[C@H](C)S(=O)(=O)c2sc(S(N)(=O)=O)cc21
  ·	·	-5%	·	·	·
(6) c1ccc(-c2ccc(C(c3ccccc3)n3ccnc3)cc2)cc1 (centres undefined)
  -1.0%&1.1%	4&10	1%&-1%	-17%	1	-3%
(7) Cc1ncc([N+](=O)[O-])n1CCO
  -1.4%&2.3%	5&14	-2%&-4%&0%	-6%	-8	0%
(8) Cc1cccc(CN2CCN(C(c3ccccc3)c3ccc(Cl)cc3)CC2)c1 (centres undefined)
  -0.7%	-22	-5%&-6%	-6%	-4	-3%
(9) NC(=O)c1cccnc1
  -2.0%	-10	-1%&-3%&-4%	5%	-13	3%
(10) COc1ccc2c3c1O[C@H]1C[C@@H](O)C=C[C@@]31CCN(C)C2
  0.0%	10	-2%&-6%&-3%	3%	-14	-1%
(11) COc1cc(CNC(=O)CCCC/C=C/C(C)C)ccc1O
  -0.1%	-3	-3%&-12%&-1%&-2%&-3%&-6%	2%	4	0%
(12) CC(C)(C)CC(C)(C)c1ccc(OCCOCC[N+](C)(C)Cc2ccccc2)cc1
  1.2%	·	-11%&-12%&-4%&-12%	0%	-11	1%
(13) CCN(CC)C(=O)N1CCN(C)CC1
  0.0%	9	-1%&-5%&-2%	-1%	-3	-2%
(14) CN1CCCC1c1cccnc1 (centres undefined)
  ·	·	0%&-3%&-4%	-7%	-3&-7	2%&0%
(15) CCCCC[C@H](O)/C=C\[C@@H]1[C@H](O)CC(=O)[C@@H]1CCCCCCC(=O)O
  ·	·	-3%	·	·	·
(16) CC12CCC3c4ccc(O)cc4CCC3C1CCC2O (centres undefined)
  ·	·	0%	·	·	·
(17) COC(=O)[C@@H]1[C@H]2C[C@H]3c4[nH]c5ccccc5c4CCN3C[C@@H]2CC[C@@H]1O
  -1.8%	-25	-5%&-3%&-3%	-7%&5%	-5&1	-1%&1%
(18) N=C(N)c1ccc(OCCCCCOc2ccc(C(=N)N)cc2)cc1
  1.7%	·	-5%&-6%&-7%&-7%	7%	-7	4%
(19) CCOC(=O)O[C@@H](C)OC(=O)[C@@H]1N2C(=O)[C@@H](NC(=O)[C@@H](N)c3ccccc3)[C@H]2SC1(C)C
  ·	·	-2%	·	·	·
(20) CC[C@@H]1OC(=O)[C@@H](C)[C@H](O[C@H]2C[C@@](C)(OC)[C@@H](O)[C@H](C)O2)C(C)[C@H](O[C@H]2O[C@@H](C)C[C@@H](N(C)C)[C@@H]2O)[C@@](C)(O)C[C@H](C)C(=O)[C@@H](C)[C@H](O)[C@@]1(C)O (some centres undefined)
  ·	·	-3%	·	·	·

# Taken from above:
# cpd 20 in GRP78 ERSR act reads -3%
# cpd 2 in GRP78 ERSR act reads -2%

# The listing picks up, repeating the 4 entries before the break.
# Below each SMILES: RXFP1 agonist	D2 PAM	GRP78 ERSR act	Vif-A3F inh	LDHA block	Vif-A3G inh
(17) COC(=O)[C@@H]1[C@H]2C[C@H]3c4[nH]c5ccccc5c4CCN3C[C@@H]2CC[C@@H]1O
  -1.8%	-25	-5%&-3%&-3%	-7%&5%	-5&1	-1%&1%
(18) N=C(N)c1ccc(OCCCCCOc2ccc(C(=N)N)cc2)cc1
  1.7%	·	-5%&-6%&-7%&-7%	7%	-7	4%
(19) CCOC(=O)O[C@@H](C)OC(=O)[C@@H]1N2C(=O)[C@@H](NC(=O)[C@@H](N)c3ccccc3)[C@H]2SC1(C)C
  ·	·	-2%	·	·	·
(20) CC[C@@H]1OC(=O)[C@@H](C)[C@H](O[C@H]2C[C@@](C)(OC)[C@@H](O)[C@H](C)O2)C(C)[C@H](O[C@H]2O[C@@H](C)C[C@@H](N(C)C)[C@@H]2O)[C@@](C)(O)C[C@H](C)C(=O)[C@@H](C)[C@H](O)[C@@]1(C)O (some centres undefined)
  ·	·	-3%	·	·	·
(21) CN=C(NC#N)NCCSCc1nc[nH]c1C
  0.3%	-2	-2%&-2%&-6%&-2%&-4%&1%	3%	-7	0%
(22) CC(=O)C1CCC2C3CCC4=CC(=O)CCC4(C)C3CCC12C (centres undefined)
  ·	·	-2%	·	0	·
(23) Cc1ccc(S(=O)(=O)NC(=O)NN2CCCCCC2)cc1
  -3.4%	3	-4%&-1%&0%&-5%&-5%&-1%	2%	3	-1%
(24) O=C(O)c1cc(-c2ccccc2)nc2ccccc12
  5.9%&6.9%	0&8	2%&-2%&-2%	-3%	-11	-5%
(25) CC1(C)S[C@@H]2[C@H](NC(=O)[C@H](N)c3ccccc3)C(=O)N2[C@H]1C(=O)OC1OC(=O)c2ccccc21 (some centres undefined)
  -0.4%	11	0%	-2%	-6	2%
(26) NCCS(=O)(=O)O
  ·	·	-3%&-2%&1%&-1%	3%	-16	0%
(27) Cn1c(=O)c2c(ncn2C)n(C)c1=O
  16%	1	-3%&-2%&-4%&-4%&-1%&-1%	-2%	-2	1%
(28) O=C(Nc1ccc([N+](=O)[O-])cc1Cl)c1cc(Cl)ccc1O
  1.4%	2	-12%&-1%&-9%&-8%&-6%	-1%	-17	2%
(29) O=C1NCN(c2ccccc2)C12CCN(CCCC(c1ccc(F)cc1)c1ccc(F)cc1)CC2
  -0.5%	-26	-15%&-7%&-1%&-2%&-12%	3%	-5	-10%

# An excerpt from above in order of length of the SMILES, smallest number first.
# Below each SMILES: RXFP1 agonist	D2 PAM	GRP78 ERSR act	Vif-A3F inh	LDHA block	Vif-A3G inh
(26) NCCS(=O)(=O)O
  ·	·	-3%&-2%&1%&-1%	3%	-16	0%
(27) Cn1c(=O)c2c(ncn2C)n(C)c1=O
  16%	1	-3%&-2%&-4%&-4%&-1%&-1%	-2%	-2	1%
(24) O=C(O)c1cc(-c2ccccc2)nc2ccccc12
  5.9%&6.9%	0&8	2%&-2%&-2%	-3%	-11	-5%
(23) Cc1ccc(S(=O)(=O)NC(=O)NN2CCCCCC2)cc1
  -3.4%	3	-4%&-1%&0%&-5%&-5%&-1%	2%	3	-1%
(22) CC(=O)C1CCC2C3CCC4=CC(=O)CCC4(C)C3CCC12C (centres undefined)
  ·	·	-2%	·	0	·
(28) O=C(Nc1ccc([N+](=O)[O-])cc1Cl)c1cc(Cl)ccc1O
  1.4%	2	-12%&-1%&-9%&-8%&-6%	-1%	-17	2%
(29) O=C1NCN(c2ccccc2)C12CCN(CCCC(c1ccc(F)cc1)c1ccc(F)cc1)CC2
  -0.5%	-26	-15%&-7%&-1%&-2%&-12%	3%	-5	-10%

# Not all compounds are listed; count on the stated rates, not on these rows.
